# Assay outcomes from PubChem.
# NPYLR7 agonist = activates Aedes aegypti NPYLR7 receptor; activation, % at 10 µM; actives 0.15% (n = 270,000); AID 1259423; HEK293T NPYLR7/Galpha15, GCaMP6s calcium fluorescence; in the data active = activation above about 40%;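 also: 0% = vehicle and 100% = reference agonist at the receptor; some compounds past the cut are filed as inactive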
# NPYLR7 agonist max-min = recorded beside NPYLR7 agonist, whose call it bears; activation, %; measured here: Max-Min RFU normalised activation; some inactives read as strong as hits;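 span of the calcium signal over five minutes; 0% = vehicle and 100% = native peptide agonist; compound fluorescence can raise it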
# Numbers without * were called inactive.
SMILES,NPYLR7 agonist,NPYLR7 agonist max-min
O=C(c1ccsc1)N1CCCC(N2CCN(Cc3ccc4c(c3)OCO4)CC2)C1 (stereo unspecified),2,0
COc1ccc2c(c1)c(CC(=O)O)c(C)n2C(=O)c1ccccc1,5,-3
CC(CNC(=O)c1cc(COc2ccccc2)[nH]n1)c1ccccc1 (stereo unspecified),-2,-4
COc1ccc(-c2nc3ccccc3o2)cc1NC(=O)c1cc2ccccc2cc1OC,-12,-12
CSc1ncccc1C(=O)N1CCc2c(c(C(=O)N3CCOCC3)nn2CCC(C)C)C1,6,-4
CCOC(=O)c1cc(NC(=O)c2ccccc2)c(=O)oc1C(F)(F)F,-3,-4
Cc1csc(CN(C)CC2CN(c3ccccc3)C(=O)O2)n1 (stereo unspecified),9,5
CC(C)CC(=O)N1CCN(c2ccc(-c3ccccn3)nn2)CC1,0,20
CC(C)c1ccc(-n2ccnc2SCC(=O)NC(N)=O)cc1,11,12
O=C(O)C1CC2(CCNCC2)CN1C(=O)c1scc2c1CCCC2 (stereo unspecified),14,5
CN(Cc1ccc(N2CCOCC2)cc1)Cc1cc(C#N)ccc1F,13,7
COC(=O)c1ccc(COc2ccc3c(C)c(C)c(=O)oc3c2C)o1,-6,-8
COc1ccc(Cn2cnc3c4ccccc4n(CC(=O)NCc4ccc(F)cc4)c3c2=O)cc1,1,-5
COc1ccc(/C=C2\N=C(c3ccc4c(c3)OCO4)OC2=O)cc1OC(C)=O,14,19
O=C(Nc1nc(-c2ccc(Br)cc2)cs1)c1cccc(I)c1,11,6
CCCc1cc(=O)[nH]c(-n2nc(C)cc2NC(=O)C(C)(C)CCl)n1,6,0
CC=CCN1N=C(C)Cn2c1nc1c2c(=O)n(Cc2ccc(Cl)c(Cl)c2)c(=O)n1C,2,2
CCC(=O)C1=C(c2cccc(OC)c2)N(C(=O)CC)n2cnnc2S1,6,3
CN(C)S(=O)(=O)c1ccc(NC(=O)c2ccc(-c3ccccc3)n2C)cc1,1,15
CC1=NC2=C(C(=O)CCC2)C(c2ccc(Br)cc2)C1C#N (stereo unspecified),0,-2
COc1ccccc1C(=O)Nc1ccc2c(c1)CN(C(=O)c1c(F)cccc1Cl)CC2,-11,-13
Cc1ccc(-n2nnc3c(SCC(=O)N4CCCCC4)ncnc32)cc1,12,9
CCc1ccc(-c2nccn2-c2cccnc2OC)o1,7,-2
COCc1cc(C(=O)NCc2cccnc2-n2ccnc2)ccc1OC,5,3
O=C(c1ccc(Cl)cc1)c1ccc2[nH]c(=O)[nH]c2c1,5,1
CCN1CCNC(=O)C1CC(=O)N1CCc2[nH]nc(-c3ccccc3F)c2C1 (stereo unspecified),4,2
CCOc1ccccc1CN1CCN(Cc2ccc(O)c(OC)c2)CC1CCO (stereo unspecified),-7,-8
O=S(=O)(Nc1nc2ccccc2s1)c1ccc(Cl)s1,0,-2
CCOc1ccc(N(C(C)=O)c2nc(C)cc(C)c2C#N)cc1,-4,-6
O=C(C1CC1)N1CCSC12C(=O)N(Cc1c(F)cccc1F)c1ccccc12 (stereo unspecified),3,4
CCCCCCNc1ccccc1Br,9,5
O=C(Nc1ccc2c(c1)OCO2)C1CC(=O)N(c2ccc3c(c2)OCCO3)C1 (stereo unspecified),4,4
CCC(=O)c1ccc(OCC(=O)NC[C@H]2C[C@H]3C=C[C@H]2C32CC2)cc1,0,17
Cc1cc(C)c2c(CC(=O)NCCc3nnc(N)s3)coc2c1C,14,12
CCC(NC(=O)Cc1ccc2c(c1)OCO2)c1cc(C)ccn1 (stereo unspecified),2,2
O=C(O)C1(O)CCN(c2ncc(Cl)cc2Cl)CC1,6,4
Cn1cc(C(=O)NCc2ccc(Cl)cc2)c2[nH]c(=O)n(-c3ccc(Cl)cc3)c(=O)c21,1,1
Cc1ccc2oc(-c3cc(NC(=O)c4ccc(F)cc4)ccc3Cl)nc2c1,4,-1
CCC(C)(C)C1CCC(=NNc2ccc([N+](=O)[O-])cc2)CC1 (stereo unspecified),-13,-16
Cc1cc(C(=O)CN2CC(C)CC(C)C2)c(C)n1NC(=O)c1nn(C)c(=O)c2ccccc12 (stereo unspecified),4,5
O=C(NCCC(=O)N1CCOC(COCc2ccccc2F)C1)OCc1ccccc1 (stereo unspecified),5,8
Cc1ccc(C2=NN(C(=O)CCCc3ccccc3)C(O)(C(F)(F)F)C2)cc1 (stereo unspecified),-3,0
Nc1nc(SCC(=O)CSc2n[nH]c(N)n2)n[nH]1,-1,-4
COc1ccc2n[nH]c(CN3CCN(c4ncnc5ccccc45)CC3)c2c1,1,0
COCCCNC(=O)C(NC(=O)C1CC1)C1CCN(C(=O)c2cccc(F)c2)CC1 (stereo unspecified),-9,-9
Cc1onc(C(=O)N2C(C)CCCC2C)c1[N+](=O)[O-] (stereo unspecified),9,8
COCC(=O)Nc1ccc(N(C)C)c(CN(C(=O)c2ccco2)C2CCCCC2)c1,24,29
CCOc1ccc(S(=O)(=O)N(C)c2ncccc2F)c2ccccc12,-7,744
C=CCC(c1ccncc1)[N+]([O-])=Cc1ccccc1 (stereo unspecified),-9,-12
CN1N=C(c2ccc3c(c2)OCCO3)CC1c1cnn(C)c1 (stereo unspecified),-1,-2
# Next section.
SMILES,NPYLR7 agonist,NPYLR7 agonist max-min
Cc1ccc(N(CC(=O)N2CCCC(O)(CO)CC2)S(C)(=O)=O)cc1 (stereo unspecified),5,1
CC(C)NCC(=O)N(c1ccccc1)N1CCOCC1,-16,-24
CC(C)c1cc(N2CC(c3ccncc3)C2)nc(C(F)(F)F)n1,7,4
Cc1cc(C)c(C(=O)CSc2nnc(C)c(=O)[nH]2)cc1C,-4,-6
CC(C)(C)c1ccc(CC(=O)N2CCC2(C)C(=O)Nc2cccc3cccnc23)cc1 (stereo unspecified),-3,0
COC(=O)c1cc2n(n1)CCCN(C(=O)CSc1nc(C)cs1)C2,3,0
Cc1cccn2c(CNC(=O)C3CC(=O)N(CC(C)C)C3)cnc12 (stereo unspecified),6,4
Cc1cccc(Cn2c(=O)c(C(=O)N3CCN(C)CC3)nn(-c3ccc(Cl)cc3)c2=O)c1,3,4
CC(C)c1cc(C(C)C)n(C2CCN(C(=O)c3ccc(F)c(F)c3)CC2)n1,2,-2
CCc1nnc(-c2cc3ccccc3n2CC(=O)N2CCCC2)o1,2,1
COc1c(C)cc(C(=O)C2CCCN(Cc3cnc(N(C)C)s3)C2)cc1C (stereo unspecified),-3,-4
Cc1ccsc1CN(Cc1ccccc1)C(=O)CN(C(=O)c1ccc(Br)cc1)C1CCCCC1,18,26
COc1ccc(-c2c(C)c3ccc4c(c3oc2=O)CN(C2CCS(=O)(=O)C2)CO4)cc1OC (stereo unspecified),0,2
O=S(=O)(c1ccc(N2CCN(Cc3ccc4c(c3)OCO4)CC2)nc1)N1CCCC1,3,10
COc1ccccc1NC(=O)c1c(O)c2ccccc2n(C)c1=O,21,18
Cc1ccc(N2CCN(C(=O)c3ccc(Cl)c(Cl)c3)C(C)C2=O)cc1F (stereo unspecified),22,35
C/C=C/C(=O)N1CCC(n2c(=O)oc3ccc(C(C)(C)C)cc32)CC1,5,1
CCN(CC1CCOCC1)C(=O)C1CCCN(Cc2ccco2)C1 (stereo unspecified),5,-2
CN(CCc1ccccc1)C(=O)C1CCN(Cc2c(-c3ccco3)nc3ccccn23)CC1,-1,31
O=C(NCC(=O)N1CCCC1)c1n[nH]c(=O)c2ccccc12,-1,0
Cn1c(=O)oc2cc(NC(=O)C3CCCC(C(F)(F)F)C3)ccc21 (stereo unspecified),8,4
COc1cccc(CNC(=O)CCC2CCCN(c3cc(C)nc(N4CCCC4)n3)C2)c1 (stereo unspecified),8,6
COc1ccc(CCCNC(=O)c2ccc(N3CC(O)C3)nc2)cc1,3,1
O=C(NC1CC(=O)N(C2Cc3ccccc3C2)C1)c1cc[n+]([O-])cc1 (stereo unspecified),0,-3
CC1=C(C(=O)NC(C)C)C2(CCC(C)CC2)OC1=O (stereo unspecified),5,4
CC(=O)c1cccc2c1OC(C)C(=O)N2Cc1cccc(F)c1 (stereo unspecified),3,-2
COCCN(Cc1cccc(OS(=O)(=O)c2cccc(C(F)(F)F)c2)c1)C(=O)COc1ccccc1,-1,13
O=C(NCCN1CCCCC1=O)c1cc(Cn2ccc3ccccc32)[nH]n1,3,1
O=C(CN1CCOC1=O)NCc1cnn2ccccc12,-4,-8
CCOc1ccc(-c2cc3c(=O)n(CC(=O)Nc4ccccc4)ccn3n2)cc1,6,5
CN1CCN(C(CNS(C)(=O)=O)c2ccc(N(C)C)cc2)CC1 (stereo unspecified),1,1
CCCCSc1nnc2c(n1)OC(c1ccc(Cl)cc1)Nc1ccccc1-2 (stereo unspecified),12,10
O=C(CSc1nc2ccccc2s1)Nc1ccccc1Oc1ccccc1,-2,-10
Cc1nnn(CC(=O)NS(=O)(=O)c2ccc(C(C)(C)C)cc2)c1COc1ccc2ccccc2c1,5,1
Cc1cc(=O)n2[nH]cc(-c3ccccc3)c2n1,-9,-11
CCC(=O)C(C)Sc1n[nH]c(-c2ccc(CC)cc2)n1 (stereo unspecified),9,4
CCN(CC)CCCn1c2c(c(SCC(=O)Nc3cccc(Cl)c3C)nc1=O)CCC2,-2,3
CCOC(=O)CN(C(=O)c1ccc(C)cc1)N(C(=O)c1ccc(C)cc1)C(C)(C)C,-11,-13
CCN1CCn2c(C)nc(C(=O)Nc3cnc4n3CCCC4)c2C1=O,0,-1
CCN(CC)C(=O)Oc1ccc2c(ccn2Cc2ccc(Cl)cc2)c1-c1ccc(OC)c(OC)c1,3,0
CC(NP1(=O)C=C(c2ccccc2)OC(c2ccccc2)=C1)C1CC2CCC1C2 (stereo unspecified),0,-2

# In the list so far, 16 contain an aryl methoxy group:
SMILES,NPYLR7 agonist,NPYLR7 agonist max-min
COc1ccc2c(c1)c(CC(=O)O)c(C)n2C(=O)c1ccccc1,5,-3
COc1ccc(-c2nc3ccccc3o2)cc1NC(=O)c1cc2ccccc2cc1OC,-12,-12
COc1ccc(Cn2cnc3c4ccccc4n(CC(=O)NCc4ccc(F)cc4)c3c2=O)cc1,1,-5
COc1ccc(/C=C2\N=C(c3ccc4c(c3)OCO4)OC2=O)cc1OC(C)=O,14,19
CCC(=O)C1=C(c2cccc(OC)c2)N(C(=O)CC)n2cnnc2S1,6,3
COc1ccccc1C(=O)Nc1ccc2c(c1)CN(C(=O)c1c(F)cccc1Cl)CC2,-11,-13
CCc1ccc(-c2nccn2-c2cccnc2OC)o1,7,-2
COCc1cc(C(=O)NCc2cccnc2-n2ccnc2)ccc1OC,5,3
CCOc1ccccc1CN1CCN(Cc2ccc(O)c(OC)c2)CC1CCO (stereo unspecified),-7,-8
COc1ccc2n[nH]c(CN3CCN(c4ncnc5ccccc45)CC3)c2c1,1,0
COc1c(C)cc(C(=O)C2CCCN(Cc3cnc(N(C)C)s3)C2)cc1C (stereo unspecified),-3,-4
COc1ccc(-c2c(C)c3ccc4c(c3oc2=O)CN(C2CCS(=O)(=O)C2)CO4)cc1OC (stereo unspecified),0,2
COc1ccccc1NC(=O)c1c(O)c2ccccc2n(C)c1=O,21,18
COc1cccc(CNC(=O)CCC2CCCN(c3cc(C)nc(N4CCCC4)n3)C2)c1 (stereo unspecified),8,6
COc1ccc(CCCNC(=O)c2ccc(N3CC(O)C3)nc2)cc1,3,1
CCN(CC)C(=O)Oc1ccc2c(ccn2Cc2ccc(Cl)cc2)c1-c1ccc(OC)c(OC)c1,3,0

# An excerpt, so the mix of outcomes need not match the whole.
